# Bioassay records from PubChem BioAssay.
# MT1-MMP act inh: blockers of MT1-MMP proenzyme processing, primary screen, HT1080 RFP-PRO-GFP cells, GFP/RFP fluorescence; Matrix metalloproteinase-14 (Homo sapiens), P50281; GFP/RFP ratio change, % at 20 µM; AID 651647, 2012; actives 0.061% (n = 360,000); GFP/RFP ratio fluorescence, overnight; percent of plate control window, DMSO zero;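 active = GFP/RFP ratio change of at least 30% with cell ATP level not reduced by more than half and red fluorescence within 50% of control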; note: strong numbers were not always called active
#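 Assay system: HT1080 RFP-PRO-GFP cells. Benchmarks: DMSO vehicle wells and RFP-L50D-GFP reporter cell wells. Times: overnight cell settling, then overnight compound exposure, 37 °C, 5% CO2. Compound: 20 µM single dose, 1% DMSO. Read-out basis: GFP/RFP fluorescence ratio.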
# Rce1 inh: yeast Rce1p protease inhibitors, primary screen, biochemical, fluorescence, cell-free homogeneous; CAAX prenyl protease 2 (Saccharomyces cerevisiae (strain ATCC 204508 / S288c)), Q03530; yeast membranes, quenched prenylated peptide cleavage fluorescence; calls only; actives 0.27% (n = 290,000); AID 2563, 2010;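 active = fall in fluorescence gain of 50% or more versus controls, with final raw signal at or below 3038400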;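 note: plate controls were neutral control wells for no effect and wells lacking membranes for full effect; tested at 10 µM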
# Target sequence (Q03530 whole entry, looked up): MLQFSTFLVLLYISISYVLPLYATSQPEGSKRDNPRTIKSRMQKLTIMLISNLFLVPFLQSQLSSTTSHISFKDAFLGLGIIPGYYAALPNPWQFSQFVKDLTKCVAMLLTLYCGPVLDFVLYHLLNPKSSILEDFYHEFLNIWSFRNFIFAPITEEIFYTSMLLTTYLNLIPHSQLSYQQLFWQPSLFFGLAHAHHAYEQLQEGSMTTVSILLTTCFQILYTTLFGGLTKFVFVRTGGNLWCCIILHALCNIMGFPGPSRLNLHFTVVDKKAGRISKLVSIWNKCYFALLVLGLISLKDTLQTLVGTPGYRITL
# Yeast UUG start: modulators of yeast start codon fidelity, primary screen, whole organism, S. cerevisiae, single point, plate reader | S. cerevisiae UUG-firefly luciferase reporter, luminescence/redox ratio | activity score, % at 18.7 µM | actives 0.13% (n = 350,000);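 active = replicate mean at a twofold rise or more, about +100% in these data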;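 note: firefly luciferase made from a UUG start codon reports start codon fidelity; reporter light over untreated wells divided by growth signal over untreated wells; some hits fall short of that in this replicate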
# PABP FP inh: PABP poly(A) RNA binding inhibitors, primary screen, biochemical, fluorescence polarization, uHTS | AID 2014, 2009 | actives 1% (n = 290,000) | Polyadenylate-binding protein 1 (Homo sapiens), P11940 | inhibition, % at 35 µM;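 active = 50% or more with normal probe brightness, or confirmed in later tests; about a fifth of its hits are not listed in these tables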;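 note: calls also rest on retests at 20 µM and on dose response follow-up; controls were probe without protein and protein plus probe with vehicle; some compounds called inactive have numbers as strong as hits; many hits fall short of the cut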
# Env fusion inh: inhibitors of HIV-1 Env-driven cell-cell fusion, primary screen, HeLa-JRFL effector, CEM21 target cells, luciferase; inhibition, % at 12.3 µM; actives 1.1% (n = 360,000);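 active = mean replicate inhibition score of at least 50 and every replicate individually at or above 50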;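 note: 0% = plate neutral controls and 100% = maraviroc near 300 nM; one replicate is shown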
# eIF4H inh: human eIF4H binding inhibitors, primary screen, translation initiation inhibitor project, biochemical, uHTS, fluorescence polarization; actives 0.94% (n = 290,000); eIF4H fluorescence polarization binding assay; Eukaryotic translation initiation factor 4H (Homo sapiens), Q15056; inhibition, % at 35 µM;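 active = 50% or more with normal probe brightness, or confirmed in later tests; about a fifth of its hits are not listed in these tables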;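 note: calls also rest on retests at 20 µM and on dose response follow-up; 0% = protein and probe with vehicle and 100% = probe without protein; strong numbers were not always called active; many hits fall short of the cut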
# CSC inhib: cancer stem cell viability inhibitors, primary screen, luminescence. cancer stem cell-like cells viability. inhibition, % at 7.5 µM. actives 1.1% (n = 300,000). AID 2717, 2010;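 active = mean at 75% or more and at least half the replicates too; tested in HMLE shEcad cells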;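 note: 0% = median of negative and 100% = median of positive control wells; the first replicate is given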
# eIF4H inh retest: second read-out of eIF4H inh, no call of its own (marks repeat the call); inhibition, %; compound at 20 µM; confirmation average;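 mean of two retest wells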
# PABP FP inh retest: second read-out of PABP FP inh, no call of its own (marks repeat the call); inhibition, %; compound at 20 µM; confirmation repeats;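 mean of two retest wells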
# MT1-MMP act inh RFP: second read-out of MT1-MMP act inh, no call of its own (marks repeat the call); RFP signal change, %; measured here: RFP expression control read;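 0 = vehicle wells; hits needed this value within 50% of zero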
# Numbers without * were called inactive; i = inactive; · = not tested or not shown; & = joins results of further samples.
SMILES,MT1-MMP act inh,MT1-MMP act inh RFP,Rce1 inh,Yeast UUG start,PABP FP inh,Env fusion inh,eIF4H inh,CSC inhib,others
CC1=C/C(=C\C=C(C#N)C#N)N(C)c2ccccc21,-28,57,·,-12,66,-153,101,-9,eIF4H inh retest=-3;PABP FP inh retest=-3
COc1ccc(C)cc1NS(=O)(=O)c1ccc(NC(=O)CN(c2cc([N+](=O)[O-])ccc2C)S(C)(=O)=O)cc1,-2,-13,i,3,6,29,-11,93*,
CCOC(=O)[C@H]1[C@H]2COc3ccc(Br)cc3[C@@H]2N2C(=O)c3cc(F)c(F)cc3NC(=O)[C@@]12C,-19,-16,·,-14,·,-30,·,1,
CCc1c(C)c2c(C)nn(-c3ccccc3)c2[nH]c1=O,0,5,·,-16,-2,-185,-21,16,
Cc1ccc2c(c1)CCCN2S(=O)(=O)c1cccc(C(=O)Nc2ccccc2C(=O)O)c1,6,9,i,-4,14,-36,4,62,
CC(=O)Nc1c(C)ccc(CNC(=O)COc2cc(C)ccc2C)c1C,-11,0,i,3,3,2,-4,-1,
CCOc1ccc(OCC)c(NC(=O)C2CCN(S(=O)(=O)c3c(C)noc3C)CC2)c1,0,-1,i,-5,-16,-21,8,12,
COc1ccc(C)cc1NC(C)C(=O)NC(=O)NC1CCCCC1 (stereo not given),0,-2,·,-6,·,·,·,5,
Cc1[nH]c2ccccc2c1C(=O)CN1C(=O)NC(C)(c2ccc(Cl)cc2Cl)C1=O (stereo not given),-5,-11,i,·,14,5,-13,10,
CS(=O)(=O)c1ccc(NCCc2ccccn2)c([N+](=O)[O-])c1,-7,2,i,·,12,-6,-4,-6,
COCCN(C(=O)COC(=O)/C=C/c1ccc2c(c1)OCO2)c1c(N)n(Cc2ccccc2)c(=O)[nH]c1=O,2,-2,·,-4,·,11,·,-4,
Cc1[nH]n(C(C)(C)C)c(=O)c1Sc1ccc(Cl)cc1,-2,0,i,-1,5,-30,-7,3,
CCOC(=O)[C@@H]1[C@H]2COc3ccccc3[C@H]2N2C(=O)N(c3cccc(Cl)c3)C(=O)[C@@]12C,-10,-2,i,29,-2,·,7,4,
COc1ccc(/C=C(/NC(=O)c2ccccc2)C(=O)N/N=C/c2ccc3c(c2)OCO3)cc1OC,-4,-9,·,-2,8,4,3,·,
CCCn1nc(NC(=O)c2ccncc2)c2cc3ccccc3nc21,-2,-9,i,0,0,·,0,2,
Cc1cc(C)c(NC(=O)CCn2nnc3ccccc32)c(C)c1,3,-1,i,·,2,2,-1,-2,
O=C(O)/C(=C\c1ccc(Cl)c([N+](=O)[O-])c1)c1ccc(S(=O)(=O)N2CCCCC2)s1,5,0,i,·,-5,-2,31,-2,
CCOc1ncccc1C(=O)OCC(=O)Nc1nnc(-c2ccccc2)o1,2,3,i,·,·,6,·,11,
O=S(=O)(NCCSCc1ccc(Cl)c(Cl)c1)c1ccc2c(c1)OCCO2,13,10,i,-9,·,·,·,14,
O=C(NCc1ccccn1)c1ccc(Cn2c(=S)[nH]c3ccccc3c2=O)cc1,0,2,i,-10,-3,-13,2,-13,
CC1CC(=O)N(CC(=O)NCc2ccc(F)cc2)c2ccccc2S1(=O)=O (stereo not given),-3,2,i,-3,12,-8,-3,-15,
CC1CCC(NC(=O)c2cnccn2)CC1 (stereo not given),0,-1,i,-13,-6,·,6,-5,
CCNC(=O)COC(=O)CCNC(=O)c1ccc(Cl)cc1,-1,-2,i,-21,17,-8,1,4,
COc1ccccc1C(=O)N/C(=C\c1cn(S(=O)(=O)N(C)C)c2ccccc12)C(=O)N1CCN(C)CC1,-5,2,·,-6,·,14,·,·,
CCOC(=O)C1CCCN(C2CC(=O)N(c3ccc(NC(C)=O)cc3)C2=O)C1 (stereo not given),-10,3,i,-9,-15,-1,-1,-1,

# Next part, overlapping the part above by 2 compounds.
SMILES,MT1-MMP act inh,MT1-MMP act inh RFP,Rce1 inh,Yeast UUG start,PABP FP inh,Env fusion inh,eIF4H inh,CSC inhib,others
COc1ccccc1C(=O)N/C(=C\c1cn(S(=O)(=O)N(C)C)c2ccccc12)C(=O)N1CCN(C)CC1,-5,2,·,-6,·,14,·,·,
CCOC(=O)C1CCCN(C2CC(=O)N(c3ccc(NC(C)=O)cc3)C2=O)C1 (stereo not given),-10,3,i,-9,-15,-1,-1,-1,
Cc1cnc(NC(=O)CSc2ncc(-c3ccccc3)n2Cc2ccco2)s1,-2,-5,i,-12,0,-71,-3,8,
CC(=O)NS(=O)(=O)c1ccc(NC(=S)Nc2ccccc2)cc1,1,-1,i,-19,-9,-6,5,-4,
CCOC(=O)C1CN(c2cc3c(cc2F)c(=O)c(C(=O)O)cn3CC)OC1C(=O)OCC (stereo not given),-1,-4,i,-4,0,·,-4,3,
COc1ccc(NS(=O)(=O)c2ccc(NC(=S)NC(=O)c3ccc(Br)cc3)cc2)nn1,1,-1,i,-9,6,8,6,-4,
Cc1ccc(/C=C/C(=O)N2CCN(c3ccc(F)cc3)CC2)o1,7,2,i,-5,-6,24,-1,20,
COc1ccc(N2CCN(S(=O)(=O)c3ccc(Cl)c(C(F)(F)F)c3)CC2)cc1,7,9,i,-3,7,-96,-2,-18,
CSc1nc(SC(C)C(=O)O)c2c3c(sc2n1)COC(C)(C)C3 (stereo not given),-3,-2,i,1,-5,1,-2,2,
Cc1cccc(Nc2nc(N)nc(CC(=O)CSc3ccc(Cl)cc3)n2)c1,·,·,i,·,-7,·,0,2,
CCn1nnc(NC(=O)C(C)Oc2ccc(Cl)cc2Cl)n1 (stereo not given),-5,-2,i,-8,-8,-22,0,3,
CC(C)C(C(=O)Nc1ccncc1)c1ccc(Cl)cc1 (stereo not given),-4,-11,i,-20,1,30,-13,9,
CCN(CC)Cc1cc(C(C)=O)ccc1OCC(C)C,0,4,i,-15,-2,·,2,·,
COc1cc(/C=C2/C(=O)NN(c3cccc(C)c3)C2=O)cc([N+](=O)[O-])c1O,11,0,i,·,29,10,11,6,
CC(C)c1ccc(-c2noc(C3CCCN(S(C)(=O)=O)C3)n2)cc1 (stereo not given),8,-9,i,-8,7,·,8,-4,
Cc1c(NC(=O)c2ccc3c(c2)OCO3)c(=O)n(-c2ccccc2)n1C,-3,2,i,1,5,·,-6,4,
CC(C)(C)c1ccc2cc(F)cc(F)c2n1,7,9,·,-8,·,4,·,·,
COc1cc([N+](=O)[O-])cc2cc(C(=O)N3CCCC3)c(=O)oc12,9,4,i,·,-2,1,4,-3,
CC(OC(=O)CNC(=O)c1ccccc1F)C(=O)Nc1nc(-c2ccccc2)cs1 (stereo not given),5,-2,i,·,-2,-32,6,8,
COc1cccc(N2[C@@H](CC(C)=O)c3ccccc3S2(=O)=O)c1,4,4,i,-3,·,1,·,-8,
COc1ccc(CNC(=O)c2cc3c(s2)CN(Cc2ccccc2)C3)cc1,2,2,i,·,-2,-11,1,11,
O=S(=O)(Cc1ccccc1)Oc1ccccc1,1,0,i,·,3,-7,10,7,
N#C/C(=C\c1ccc[nH]1)C(=O)NC1CC1,2,0,i,-11,-13,-4,-10,-9,
CCOc1cc(S(=O)(=O)NCCN2CCOCC2)c(C)cc1C,-1,2,i,-25,0,·,-6,-12,
O=[N+]([O-])c1cccc(N(CC(O)CN2CCCC2)S(=O)(=O)c2ccccc2)c1 (stereo not given),-1,1,i,-14,-12,-10,35,-7,
CC(=O)NCC(=O)N(C)C(C(=O)Nc1ccc(C(C)C)cc1)c1ccccc1 (stereo not given),0,2,i,-12,10,-50,-6,-8,
CCn1c(-c2nn(-c3ccccc3)ccc2=O)n[nH]c1=S,3,7,i,·,-5,-3,-5,4,
# Next section.
SMILES,MT1-MMP act inh,MT1-MMP act inh RFP,Rce1 inh,Yeast UUG start,PABP FP inh,Env fusion inh,eIF4H inh,CSC inhib,others
O=S(=O)(Nc1ccc(S(=O)(=O)N2CCCC2)cc1)c1ccc(F)cc1F,-4,5,·,-13,·,9,·,-1,
Cc1ccc(NC(=O)Cn2nnc(C(=O)NCc3ccco3)c2N)c(C)c1,0,0,i,-16,0,-3,7,12,
C[C@H](CO)N1C[C@H](C)[C@@H](CN(C)C(=O)CN2CCOCC2)Oc2cc(Br)ccc2S1(=O)=O,1,2,·,-17&-16,·,4,·,·,
C=CCNC(=O)C(C)N1C(=O)c2ccccc2C1=O (stereo not given),-1,0,i,-8,11,3,-7,-15,
CC(=O)c1ccc(OCC(=O)NC(=O)NC2CCCC2)cc1,1,-3,·,-8,·,22,·,·,
CCOC(=O)CSc1n[nH]c(NC(=O)CC)n1,4,3,i,·,9,9,-8,-1,
COC(C[C@H](O)CC(=O)[C@@H](C)OCc1ccccc1)OC,-1,2,i,-7,·,8,·,-7,
O=C(NC1CC1)C1=C[C@@H](c2c[nH]c3ccccc23)C[C@@H](OCc2ccc(CO)cc2)O1,-2,7,i,-4,-3,6,0,-22,
O=C(NC1CC(=O)N(c2ccc3c(c2)OCCO3)C1)N1CCC(O)CC1 (stereo not given),2,2,i,-2,·,-25,·,-9,
CCCc1[nH][nH]c(=O)c1C(c1ccccc1)C(C#N)C#N (stereo not given),5,1,i,-11,3,-24,8,-4,
CCCCCn1c(CN2CCN(CCO)CC2)nc2c1c(=O)n(C)c(=O)n2C,6,6,i,-13,8,-78,4,-7,
CS(=O)(=O)N(Cc1ccc(Cl)cc1)c1ccc(C(=O)NCc2ccccn2)cc1,-5,0,i,-20,-7,11,-3,-1,
COc1ccc(CC(=O)n2[nH]c(=O)cc(C)c2=O)cc1OC,2,-1,i,8,-12,6,-11,-9,
CCNC(=O)C1(C)CCCN(C(=O)c2ccc(C(F)(F)F)nc2C)C1 (stereo not given),-4,0,·,-15,·,4,·,·,

# Structural class: the entries above containing two or more sulfur atoms
SMILES,MT1-MMP act inh,MT1-MMP act inh RFP,Rce1 inh,Yeast UUG start,PABP FP inh,Env fusion inh,eIF4H inh,CSC inhib,others
COc1ccc(C)cc1NS(=O)(=O)c1ccc(NC(=O)CN(c2cc([N+](=O)[O-])ccc2C)S(C)(=O)=O)cc1,-2,-13,i,3,6,29,-11,93*,
O=C(O)/C(=C\c1ccc(Cl)c([N+](=O)[O-])c1)c1ccc(S(=O)(=O)N2CCCCC2)s1,5,0,i,·,-5,-2,31,-2,
O=S(=O)(NCCSCc1ccc(Cl)c(Cl)c1)c1ccc2c(c1)OCCO2,13,10,i,-9,·,·,·,14,
Cc1cnc(NC(=O)CSc2ncc(-c3ccccc3)n2Cc2ccco2)s1,-2,-5,i,-12,0,-71,-3,8,
CC(=O)NS(=O)(=O)c1ccc(NC(=S)Nc2ccccc2)cc1,1,-1,i,-19,-9,-6,5,-4,
COc1ccc(NS(=O)(=O)c2ccc(NC(=S)NC(=O)c3ccc(Br)cc3)cc2)nn1,1,-1,i,-9,6,8,6,-4,
CSc1nc(SC(C)C(=O)O)c2c3c(sc2n1)COC(C)(C)C3 (stereo not given),-3,-2,i,1,-5,1,-2,2,
O=S(=O)(Nc1ccc(S(=O)(=O)N2CCCC2)cc1)c1ccc(F)cc1F,-4,5,·,-13,·,9,·,-1,

# Not all compounds are listed; count on the stated rates, not on these rows.
